Screening results: PubChem, several laboratories
RanGTP-Impb inh = inhibitors of RanGTP-importin-beta interaction, primary screen, biochemical, FRET, CFP-Ran, YFP-importin-beta, homogeneous. Ran GTPase (GTP-bound) - importin-beta complex. cell-free CFP-Ran/YFP-importin-beta FRET ratio. inhibition, % (concentration not given with the values). 300,000 tested, 1.1% active. AID 2216, 2009;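 active = most replicates above 15%; inconclusive = exactly half above 15%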;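 note: 0% = DMSO wells and 100% = Ran loaded with GDP instead of GTP; wells of about 40 µL received 100 nL stock; the first replicate is given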
Calb FLC = C. albicans growth inhibition with fluconazole, primary screen, CaCi-2 strain, Alamar Blue fluorescence; C. albicans CaCi-2 (fluconazole-resistant clinical isolate) + fluconazole, 48 h; growth inhibition, % (concentration not given with the values); 300,000 tested, 0.57% active; AID 1979, 2009;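 active = most replicates above 75%; inconclusive = exactly half above 75%; inactive = most below 75%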;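 note: all wells also contain fluconazole at 8 µg/ml as a sub-toxic cotreatment; 0% = median of DMSO wells and 100% = median of geldanamycin control wells; wells of about 8 µL received 7.5 nL stock; the first replicate is given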
T cruzi inh = inhibitors of intracellular T. cruzi growth, primary screen, luminescence, NIH3T3 host cells; T. cruzi beta-gal in NIH3T3, 90 h; inhibition, % (concentration not given with the values); AID 1885, 2009; 300,000 tested, 1.4% active;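 active = mean inhibition across valid replicates above about 55%, limit read from the data; inconclusive = mean below that limit but half or more replicates reach it; inactive = mean below it, under half of replicates reach it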;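 note: signal also drops with host cell toxicity which is not excluded here; 0% = plate median of DMSO wells and 100% = zero luminescence signal; higher percent means less beta-gal luminescence so fewer parasites; stock transfer was 50 nL into about 50 µL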
A1 inh = caspase 3/7 activation in MEF A1-2A-BIM cells, primary screen, A1 inhibitor project, cell-based, luminescence, HTS. 330,000 tested, 0.066% active. Caspase-Glo 3/7 luminescence, 3 h; percent of clofoctol response, vehicle zero. caspase activation, % (concentration not given with the values);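 active = over half of replicate activation scores above 10%, or exactly half above 10 with the replicate mean above 10; inconclusive = replicate mean below 10 yet half the replicates above 10; inactive = over half of replicates below 10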;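 note: wells of about 30 µL received 50 nL stock; many hits fall short of the cut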
Beta cell apopt = inhibitors of cytokine-induced beta cell apoptosis, primary screen, luminescence. protection from apoptosis, % (no concentration beside the values). INS-1E cytokine-induced death, ATP luminescence, 48 h; percent of positive-control rescue, neutral wells zero. 300,000 tested, 0.8% active;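 active = all replicates at 75% or more, or half of them and the mean; inconclusive = half reach 75% but not the mean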;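 note: 0% = cytokine-treated negative control wells and 100% = positive control rescue; higher means more ATP so stronger rescue from cytokine killing; wells of about 40 µL received 100 nL stock; the first replicate is given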
MLL AF4-AF9 inh = inhibitors of AF4 peptide binding to AF9, primary screen, biochemical, AlphaScreen, biotin-AF4 peptide, FLAG-AF9, single point. Protein AF-9 (Homo sapiens), P42568. inhibition, % at 10 µM. 350,000 tested, 0.47% active. AID 651704, 2012;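 active = every replicate reaching a set inhibition limit, whatever the replicate mean, cut at about 25% in these data; inconclusive = mean inhibition reaches that limit but some replicates miss it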;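 note: 0% = plate neutral control median and 100% = total signal loss; the record names both 10 and 1 µM as test concentration; the first replicate is given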
Target sequence (P42568 whole entry, looked up): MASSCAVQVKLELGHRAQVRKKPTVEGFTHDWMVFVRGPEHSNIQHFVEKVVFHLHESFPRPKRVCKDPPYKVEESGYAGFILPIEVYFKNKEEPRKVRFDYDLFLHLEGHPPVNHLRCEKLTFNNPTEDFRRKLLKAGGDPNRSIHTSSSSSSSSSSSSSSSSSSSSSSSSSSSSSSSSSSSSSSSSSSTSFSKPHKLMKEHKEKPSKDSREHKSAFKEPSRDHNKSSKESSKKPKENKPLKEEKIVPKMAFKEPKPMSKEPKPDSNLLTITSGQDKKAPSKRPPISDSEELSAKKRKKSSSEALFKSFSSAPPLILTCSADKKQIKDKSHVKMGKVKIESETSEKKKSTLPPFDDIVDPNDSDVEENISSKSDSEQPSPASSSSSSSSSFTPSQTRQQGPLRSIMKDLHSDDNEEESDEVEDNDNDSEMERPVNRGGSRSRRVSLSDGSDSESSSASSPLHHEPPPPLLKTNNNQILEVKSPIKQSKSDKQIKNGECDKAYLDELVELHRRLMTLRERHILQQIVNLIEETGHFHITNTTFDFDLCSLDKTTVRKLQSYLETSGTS
Vif TR-FRET = inhibitors of Vif binding to APOBEC3G peptide, primary screen, biochemical, TR-FRET, GST-Vif 1-94, biotin-A3G peptide, dose response retest (AID 1117319) | Virion infectivity factor (Human immunodeficiency virus type 1 group M subtype B (isolate … | TR-FRET GST-Vif / biotin-A3G peptide binding; higher % means a stronger effect; test concentration not given here; strong numbers were not always called active | one-dose inhibition, %; IC50 in µM for titrated hits | 260,000 tested, 0.57% active;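 active = above the screen mean plus three standard deviations and confirmed in dose response; inconclusive = results disagree or hit not tested in dose response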;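 note: Vif residues 1-94 fused to GST binding biotinylated APOBEC3G peptide 110-148; 0% = full assay without inhibitor and 100% = GST in place of GST-Vif; retest series ran down from 100 µM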
LANA-H2A inh = blockers of LANA interaction with H2A/H2B – biochemical, FP readout, HTS, primary screen; Protein LANA1 (Human herpesvirus 8 type P (isolate GK18)), Q9QR71; cell-free LANA-H2A/H2B peptide, fluorescence polarization; inhibition, % (test concentration not listed); 320,000 tested, 0.6% active; in the data active = inhibition mostly above about 10%, no sharp cut-off; inactive = mostly below about 6.7%;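 note: stock transfer was 7.5 nL into about 10 µL; 0% = median of vehicle wells and 100% = median of positive control wells; one replicate is shown; the record names a cut of 25% in any replicate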
* marks the source's active call; other numbers are inactive results; u = inconclusive; x = not tested or not shown. Not a hit list (roughly 4.3% active in at least one column).

no.	mol	RanGTP-Impb inh	Calb FLC	T cruzi inh	A1 inh	Beta cell apopt	MLL AF4-AF9 inh	Vif TR-FRET	LANA-H2A inh
1	COc1ccc(CN(C)C(=O)c2cccc(Oc3ccccc3)c2)c(OC)c1OC	-1.6	-8	13	0.5	2	-7.2	x	13
2	COc1ccccc1-c1nc(S(=O)(=O)c2ccccc2)c(N2CCCCC2)o1	-3.4	16	11	0.0	-6	0.4	-6%	1.9
3	C[C@H](NC(=O)OCc1ccccc1)C(=O)N[C@@H](Cc1c[nH]c2ccccc12)C(=O)O	-4.5	-5	-21	1.4	-3	-0.8	x	2.1
4	COc1ccc2nc(SCCN(C)C)[nH]c2c1	1.9	-3	45	-0.7	2	0.2	x	-6.7
5	CCOC(=O)C1=C(C)N=c2s/c(=C\C(=O)OC)c(=O)n2C1c1ccc(OC)cc1 (stereo not given)	u	1	-11	0.6	1	x	4%	4.4
6	Cc1cc(C(=O)Nc2ccccc2N2CCCCC2)no1	-1.5	7	10	1.3	-5	-3.0	x	-1.5
7	CCOc1ccc2nc(SCC(=O)NCc3ccc4c(c3)OCO4)[nH]c2c1	30*	-1	3	0.7	4	x	3%	-4.6
8	CCc1cc2c(SCC(=O)O)ncnc2s1	-5.5	-9	-10	-0.1	-4	4.2	6%	-3.7
9	CCN(CC)c1ccc(/C=C2\CCC(/C=C(\C#N)C(=O)Nc3ccccc3F)=C2N2CCOCC2)cc1	1.1	u	9	x	x	0.4	11%	x
10	Cc1cc(NC(=O)CSc2nc(=O)cc(N)n2-c2ccc(Cl)cc2)no1	-2.1	20	0	-0.3	-5	-0.3	-4%	-1.2
11	O=C(CSc1nnc(-c2n[nH]c3ccccc23)n1-c1ccccc1)Nc1ccccc1Cl	5.0	0	11	0.5	15	x	5%	-3.5
12	Cc1cccc(-n2c(CNC(=O)c3ccccc3)nnc2SCC(=O)Nc2nccs2)c1	0.2	1	2	1.6	-2	-1.0	16%	-1.5
13	N#Cc1ccsc1NC(=O)CN1CCN(c2ccccn2)CC1	1.5	-5	-10	-0.8	-5	x	3%	1.6
14	O=C(NCC1COCCO1)c1ccc(OC2CCN(CCc3ccccc3)CC2)cc1 (stereo not given)	-1.3	-1	-5	x	x	-0.9	x	x
15	CCOC(=O)C1=C(C)OC(N)=C(C#N)C1c1ccc(O)c(OC)c1 (stereo not given)	-2.5	52	3	-0.1	-1	x	0%	1.1
16	CCc1ccc(C(C(=O)NC2CCCC2)N(C(=O)/C=C/C(=O)Nc2cc(C)on2)c2ccccc2C)cc1 (stereo not given)	7.9	-14	9	1.9	-4	x	x	-1.5
17	CCCNC(=O)C(CC)NC(=O)c1ccc(C#N)cc1 (stereo not given)	x	x	x	1.4	2	-0.6	x	-0.8
18	CC(=O)Nc1ccc(S(=O)(=O)N2CCCN(S(=O)(=O)c3ccc(C)cc3)CC2)cc1	u	-10	5	-0.8	5	x	16%	1.8
19	Cc1cccn2cc(-c3c[nH]c4ccccc34)nc12	6.6	-2	5	-2.3	3	17	x	0.5
20	O=C(Cn1cnc2ccccc2c1=O)NCCC(=O)Nc1ccccc1C(F)(F)F	0.1	-2	10	-0.7	-3	-3.4	0%	-2.4
21	CNc1oc(-c2ccccc2)nc1C#N	0.1	-5	3	-1.2	-3	x	3%	5.3
22	Cc1ccsc1C(=O)N1CCCC(CCC(=O)NCc2ccccc2F)C1 (stereo not given)	0.4	2	11	1.3	-1	-1.9	3%	5.4
23	NS(=O)(=O)c1ccc(CCNC(=O)CN2CCN(c3cccc(Cl)c3)CC2)cc1	6.3	-3	4	-0.5	x	-7.3	x	1.8
24	CCOC(=O)C1CCN(C(=O)Cc2c(C(=O)O)n(CC)c3ccccc23)CC1	0.0	-3	-14	0.5	1	x	7%	0.1
25	COc1ccc2[nH]c(=O)c(CN(C(=O)c3cccnc3)c3ccccc3OC)cc2c1	4.7	-1	-6	0.9	-8	1.0	-28%	0.0
26	O=C(Cc1c(F)cccc1Cl)NC1CCN(Cc2ccccc2)CC1	-2.0	-10	u	0.4	4	2.9	-14%	2.3
27	CC(C)Cc1nnc(NC(=O)c2cc(-c3ccccc3)nc3ccccc23)s1	u	2	-3	0.1	-5	x	2%	2.0
28	CCOc1ccc(NC(=S)N(CCCN2CCOCC2)Cc2cn(C)c3ccccc23)cc1	-2.5	2	23	-0.1	5	17	0%	-4.1
29	CCCn1nc(C(=O)OCC(=O)Nc2ncc(Cl)c(C)c2Cl)c2ccccc2c1=O	1.4	3	-46	0.0	3	-2.6	2%	-1.8
30	Cc1ccc(-c2nc3ccccc3s2)cc1NC(=S)NC(=O)c1cccc2ccccc12	0.5	-4	14	-0.7	-3	x	-1%	-1.9
31	COc1cc(C(=O)NCc2ccc3c(c2)OCO3)c([N+](=O)[O-])cc1OC	3.3	38	-1	-0.1	1	-1.9	x	-5.6
32	O=C(Nc1ccccc1F)c1ccco1	u	u	-26	-0.5	-4	x	2%	-4.7
33	Cc1cccc(C)c1Nc1nnc(SCC(=O)NCc2cccs2)s1	0.3	-32	3	0.2	1	x	-1%	3.5
34	CCc1cc(=O)oc2cc(C)cc(OC(C)C(=O)O)c12 (stereo not given)	3.5	-3	-6	-0.2	2	x	17%	-0.5
35	CCOC(=O)Cc1c(C)nc(Cc2ccc(OC(C)C)cc2)[nH]c1=O	1.2	-3	5	-0.1	2	1.5	1%	2.4
36	Cc1c(C#N)c2ccccc2n1CC(=O)NCC1CCCO1 (stereo not given)	6.3	21	-4	0.3	-1	-2.4	1%	3.5
37	Cc1ccc2c(c1)N(C(=O)CSc1nncn1C)C(C)(C)c1ssc(=S)c1-2	6.7	4	25	-0.7	-1	x	1%	-5.4
38	COc1cnc(N(C)C)nc1Sc1ccc(Cl)cc1	4.8	-3	-5	0.2	-12	x	u	1.7
39	COc1ccc(NC(NC(=O)c2cccnc2)C(Cl)(Cl)Cl)cc1 (stereo not given)	8.9	5	7	0.1	0	-4.0	x	2.5
40	Cc1nn(CCCC(=O)NCc2ccco2)c(=O)c2nn(-c3ccccc3)c(C)c12	-2.2	-1	2	-0.4	-4	-4.2	x	0.3
41	COC(=O)Cn1c(CN2CCOCC2)nc2c1c(=O)n(C)c(=O)n2C	0.0	-2	-4	-0.7	2	-2.3	x	-7.7
42	C/C(=N\NC(N)=O)C1(C)CCCCC1	-1.2	2	-7	0.0	-9	x	1%	-3.4
43	O=C(NCC12CC3CC(C1)CC(CNC(=O)N1CCCC1)(C3)C2)N1CCCC1	6.6	6	-6	-1.0	-5	x	11%	-3.3
44	Cn1c(CNC(=O)c2ccco2)nnc1SCC(=O)c1ccc(F)cc1	-2.5	11	-1	-0.3	2	-1.6	3%	-12
45	CC(=O)NCCc1ccc(S(=O)(=O)NC2OC(=O)c3ccccc32)cc1 (stereo not given)	2.3	3	-31	0.7	-6	x	29%	-0.4
46	CC(=O)Nc1ccc2c(COC(=O)[C@@H](NS(=O)(=O)c3ccc(C)cc3)C(C)C)cc(=O)oc2c1	x	x	x	-0.6	2	-1.2	-8%	-0.3
47	O=C(NC(=S)Nc1ccccc1Cl)c1cncc(Br)c1	u	2	1	-0.6	5	0.8	x	4.7
48	O=C(COC(=O)COc1ccc2ccccc2c1)NCC(F)(F)F	3.0	-4	-11	0.4	-11	-2.6	x	-4.0
49	COC(=O)c1ccccc1NC(=O)C1CC(=O)N(c2ccc(F)cc2)C1 (stereo not given)	0.5	-2	4	1.6	-1	x	-1%	-6.3
50	COCCN(C(=O)CSCC(=O)Nc1ccc(C)cc1)c1c(N)n(CC(C)C)c(=O)[nH]c1=O	x	x	x	1.0	0	-1.8	-2%	0.9
51	CCNc1nc(NC(C)C)nc(N(C)C#N)n1	1.3	0	8	-0.5	-1	-0.9	6%	-1.0
52	CCN1CCN(C(=O)CCN2C(=O)c3ccccc3C2=O)CC1	1.5	2	5	-0.9	-1	-1.5	-2%	1.4
53	Cc1ccc(C(=O)O)cc1S(=O)(=O)N1CCC(C(=O)O)CC1	-3.7	30	2	1.3	-1	x	-1%	5.2
54	O=C(NNC(=O)C(O)(c1ccccc1)c1ccccc1)C1CC1	-3.2	-13	2	1.7	2	-1.9	3%	-2.0
55	CC1(C2CC2)NC(=O)N(CC(=O)Nc2ccc(SC(F)F)cc2)C1=O (stereo not given)	x	x	x	-0.5	-4	0.3	-3%	-1.6
56	Cc1nn(C)cc1C(C)NCc1c(C(=O)N2CCCCCCC2)nc2ccc(Cl)cn12 (stereo not given)	1.3	1	-12	0.5	-6	-1.2	-4%	-0.1
57	Cc1cccc(C)c1NC(=O)C(C)Sc1nnc(C)n1CC1CCCO1 (stereo not given)	-4.8	3	-6	x	x	-1.8	x	x
58	COc1ccccc1-c1nc(C#N)c(N2CCC(C(N)=O)CC2)o1	3.2	1	4	-0.1	6	x	2%	4.0

Arranged by value in Vif TR-FRET (highest first): 3 of the compounds above
item	Structure	RanGTP-Impb inh	A1 inh	MLL AF4-AF9 inh	Vif TR-FRET	LANA-H2A inh
42	C/C(=N\NC(N)=O)C1(C)CCCCC1	-1.2	0.0	x	1%	-3.4
50	COCCN(C(=O)CSCC(=O)Nc1ccc(C)cc1)c1c(N)n(CC(C)C)c(=O)[nH]c1=O	x	1.0	-1.8	-2%	0.9
55	CC1(C2CC2)NC(=O)N(CC(=O)Nc2ccc(SC(F)F)cc2)C1=O (stereo not given)	x	-0.5	0.3	-3%	-1.6
